PINK1 modulator – modulators of PINK1 expression | PINK1 immunofluorescence, high-content cytometry, 24 h | Potency, µM (highest dose often 76.6 µM), inactives show at the top dose activation (PINK1 increase), usual class: activators | 0.2% of 410,000 active | AID 624263; active = well fitted activation curve with a large enough effect; inconclusive = small, poorly fitted or top-dose-only effect; inactive = flat fitted curve, though single readings scatter; cell line not stated here;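 note: potency is the fitted concentration of half-maximal effect; % of control where 0% means no effect; nearly all actives have a fitted effect of over 65% in size; a mitochondrial uncoupler was the plate control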
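PINK1 protein, normally rapidly degraded, was detected by immunofluorescence after 24 hour compound treatment of a stable cell line. Titration data (5 concentrations) came from laser-scanning cytometry, with CCCP-treated wells as controls.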
TRPML1 inh – human mucolipin-1 channel inhibition; AID 624415; activity change, negative = inhibition, % (test concentration not listed); TRPML1-inducible cells, Ca2+ dye fluorescence, FDSS; active compounds read low; inhibition of EC80 agonist-evoked calcium signal; 0.02% of 390,000 active; in the data active means activity change below about -50%; inconclusive means about -30% to -50%; inactive means above about -30%;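 note: stimulus is agonist 54-4 at its EC80 concentration; % is set by controls: 0 for no effect and ±100 for the full control effect; compound concentration not given in the record; the text of the record puts the active cut at -80%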
Target sequence (Q9GZU1 whole entry, looked up): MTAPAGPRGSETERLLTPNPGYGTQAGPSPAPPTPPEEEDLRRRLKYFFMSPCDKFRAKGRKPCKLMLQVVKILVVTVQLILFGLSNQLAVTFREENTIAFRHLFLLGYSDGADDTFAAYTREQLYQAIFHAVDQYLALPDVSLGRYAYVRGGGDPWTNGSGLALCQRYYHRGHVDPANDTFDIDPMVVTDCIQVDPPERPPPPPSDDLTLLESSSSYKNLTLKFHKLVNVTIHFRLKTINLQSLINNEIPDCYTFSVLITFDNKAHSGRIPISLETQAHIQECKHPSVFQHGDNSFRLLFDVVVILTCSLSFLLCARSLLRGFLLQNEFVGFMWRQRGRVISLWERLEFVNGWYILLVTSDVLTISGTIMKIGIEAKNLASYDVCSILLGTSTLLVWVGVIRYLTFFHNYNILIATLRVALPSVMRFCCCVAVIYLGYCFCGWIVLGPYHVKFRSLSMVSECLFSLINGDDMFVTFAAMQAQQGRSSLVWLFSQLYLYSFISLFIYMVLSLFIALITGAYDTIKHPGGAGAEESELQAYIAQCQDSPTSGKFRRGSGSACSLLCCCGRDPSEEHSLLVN
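Calcium fluorescence in TRPML1-DL cells induced overnight with Tet: a 110 s read after compound pin addition, then a 110 s antagonist read after challenge with 54-4 at 4 uM final (EC80).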
D2 agonist – activates the human D2 dopamine receptor; DiscoveRx PathHunter D2 beta-arrestin, luminescence, 90 min; 100% = 57 uM dopamine signal; 0.084% of 360,000 active; activation, % (no concentration beside the values); P14416; in the data active = activation above about 40%; inconclusive = about 15% to 40%; inactive = below about 15%; note: compound concentration not given in the record; the text of the record calls up to 30% inactive
Target sequence (P14416 whole entry, looked up): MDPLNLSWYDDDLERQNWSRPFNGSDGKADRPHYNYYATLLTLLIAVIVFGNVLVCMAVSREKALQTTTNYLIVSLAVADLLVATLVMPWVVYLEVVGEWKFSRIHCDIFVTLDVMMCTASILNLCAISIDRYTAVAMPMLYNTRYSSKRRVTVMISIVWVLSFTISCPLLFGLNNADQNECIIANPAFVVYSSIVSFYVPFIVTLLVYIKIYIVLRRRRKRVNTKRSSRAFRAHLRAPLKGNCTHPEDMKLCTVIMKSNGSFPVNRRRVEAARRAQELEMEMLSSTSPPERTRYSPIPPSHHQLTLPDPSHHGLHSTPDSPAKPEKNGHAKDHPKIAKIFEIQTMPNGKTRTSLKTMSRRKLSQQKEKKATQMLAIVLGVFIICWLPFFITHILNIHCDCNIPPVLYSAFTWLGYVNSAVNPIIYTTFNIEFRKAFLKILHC
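Agonist mode: compounds alone added to overnight-plated D2 PathHunter cells for 90 min at 37 C, with 57 uM final dopamine (EC100) defining full response. Beta-arrestin recruitment detected by chemiluminescent reagent, read after 1 h at ambient temperature.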
Six1-Eya2 inh – blocks human Six1 binding to Eya2 | Q15475+O00167 | activity change, % (test concentration not listed) | AID 651725 | 0.56% of 360,000 active | AlphaScreen GST-Six1/His-Eya2 binding, biochemical; active compounds read low; control for the full effect not named in the record; in the data active = activity change below about -65%; inconclusive = about -30% to -65%; inactive = above about -30%; note: % is set by controls: 0 for no effect and ±100 for the full control effect
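Compounds are tested against tagged Six1 and Eya2 proteins bridged by glutathione donor and nickel acceptor beads; after a one-hour incubation at 37 °C without light, AlphaScreen emission is recorded.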
D2 PAM – positive allosteric modulators of human D2 dopamine receptor; 0.23% of 360,000 active; AID 624464; DiscoveRx D2 beta-arrestin cells, luminescence, 90 min; 100% = 57 uM dopamine signal; potentiation, % (concentration not given with the values); active = potentiation of 50% or more; inconclusive = 30% to 50%; inactive = 30% or less;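 note: compound concentration not given in the record; tested on top of an EC20 dose of dopamine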
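PathHunter beta-arrestin assay in DiscoveRx D2 cells. Compounds were added with an EC20 of dopamine (50 nM final) for 90 min at 37 deg C. Luminescence was read 1 h after detection reagent, with 57 uM dopamine as the EC100 control.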
TRPML1 agonist – activates the human TRPML1 channel | Q9GZU1 | TRPML1-expressing cells, Ca2+ dye fluorescence, FDSS; host cell line not named in the record; reference of the full effect not given here | activation, % (test concentration not listed) | 0.12% of 410,000 active; in the data active = activation above about 50%; inconclusive = about 30% to 50%; inactive = below about 30%; note: 0% is about no effect; the text of the record puts the active cut at 80%
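Cells: TRPML1-DL, 1X Tet inducer, ~16 h at 37 degrees C/5% CO2. Dye: ABD Ca8 no-wash + quencher, 45-90 min RT. Read: 10 s baseline, compound add, 110 s agonist phase; 54-4 EC80 (4uM final), 110 s antagonist phase.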
An asterisk follows results filed as active; ? = inconclusive; · = no result given; [ ] = remark or other dose.

Every second line gives: PINK1 modulator | TRPML1 inh | D2 agonist | Six1-Eya2 inh | D2 PAM | TRPML1 agonist
CSc1ccccc1NC(=O)COC(=O)/C=C/c1ccco1
 : 0.1% | 50 | -0.2 | -16 | -16 | 2.3
COc1ccc(C(=O)Nc2ncccc2C)cc1S(=O)(=O)N1CCOCC1
 : 0.5% | 9 | -6.2 | -1 | -18 | -0.5
CCOC(=O)C1=C(C)NC(C)=C(C(=O)OCC)C1C(=O)O
 : -2.2% | 1 | -2.5 | 1 | -5 | 1.0
Cc1cccc(C)c1NC(=S)NCc1ccncc1
 : -0.3% | 37 | -1.8 | 9 | -5 | 0.9
O=C(c1ccccc1Cl)N1CCNCC1
 : -3.4% | -5 | -2.2 | 3 | -5 | -0.6
COc1ccc(O)c(C2=Nc3ccccc3N=C(c3cccs3)C2)c1
 : -2.2% | 3 | 1.4 | 6 | -12 | 1.3
O=c1[nH]c2nc(Br)[nH]c(=O)c2[nH]1
 : -1.0% | 3 | -2.4 | -2 | -1 | 1.0
Cc1ccc(-c2nnn3c2nc(NCc2ccc4c(c2)OCO4)c2ccccc23)cc1
 : 0.0% | -3 | · | · | · | -0.8
O=C(N/N=C/c1cccnc1)c1cc2ccccc2o1
 : -0.1% | -9 | 2.7 | 2 | -16 | 0.4
CCOC(=O)CN1C(=O)NC2(CCCc3ccccc32)C1=O (configuration not stated)
 : -1.7% | 30 | -5.7 | 9 | -8 | 0.6
CC(=O)Nc1ccccc1-c1ccc(C)o1
 : 5.4% | 0 | -4.7 | 1 | -7 | -0.9
CC(=O)c1ccc(N2CCN(C(=O)/C=C/c3cccs3)CC2)cc1
 : 2.0% | -6 | 3.1 | -8 | 2 | 3.7
COc1cc2c(cc1OC)C(COc1ccc3c(C)cc(=O)oc3c1)N(C(=O)c1ccco1)CC2 (configuration not stated)
 : 9.8%[38.3 µM] | 21 | -0.5 | -4 | 1 | 0.5
O=C(O)CC(NC(=O)C1c2ccccc2Oc2ccccc21)c1ccc(OC2CCCC2)cc1 (configuration not stated)
 : -1.4% | -10 | -0.9 | -2 | 1 | 0.0
COc1cc(NC(=O)COc2cccc(OC)c2)cc(OC)c1
 : 2.7%[38.3 µM] | -5 | 0.3 | -2 | -1 | -0.1
CCOC(=O)N1CCN(S(=O)(=O)c2ccc(C(=O)Nc3sc4c(c3C(=O)OC)CCN(C)C4)cc2)CC1
 : -1.4% | -16 | -5.1 | -7 | -37 | 0.6
COc1ccc(-c2c(C#N)c(N)nc3c2CCC3)cc1
 : -1.0% | 35 | -4.9 | 8 | -24 | 2.9
O=C(O)C1C2C=CC(O2)C1C(=O)NCc1ccc2c(c1)OCO2 (configuration not stated)
 : 3.3% | 1 | 2.2 | 11 | 7 | 0.8
CCc1ccc(C(=O)NNC(=O)c2cccc(N3C(=O)CCC3=O)c2)cc1
 : -0.9% | 9 | -2.2 | 12 | -8 | -0.1
CC(C)(CNCC(O)c1ccccc1)N1CCOCC1 (configuration not stated)
 : -3.2% | 49 | -1.3 | 9 | -15 | 0.8
Cc1cccc(N(CC(=O)NCC2CCCO2)C(=O)CNS(=O)(=O)c2ccc(Cl)cc2)c1 (configuration not stated)
 : 1.7% | 11 | -0.4 | 13 | -9 | -1.1
c1ccc(CNc2cnccn2)cc1
 : 13%[38.3 µM] | 12 | 0.8 | 0 | -3 | -0.3
COc1cccc(-c2nc(CS(=O)(=O)CC(=O)NCc3ccccc3OC)c(C)o2)c1
 : -0.4% | -13 | -4.8 | 5 | -8 | -0.1
CCCc1cc(=O)[nH]c2nnc(SCC(=O)NC3CCCC3)n12
 : 1.8% | -13 | -0.3 | 3 | -3 | -0.7
CCn1c(=N)n(CC(=O)c2ccco2)c2ccccc21
 : · | 12 | -4.1 | -1 | 1 | 0.0
Cc1ccccc1N=C1NC(=O)CC(c2ccccc2)S1 (configuration not stated)
 : -1.1% | 0 | -1.5 | 2 | ? | -0.3
CC1=Nc2cc(C(=O)NCCN3CCOCC3)ccc2Sc2c(C)ccc(C)c21
 : 1.5% | -1 | 1.3 | -4 | -6 | 3.6
CCN(CC(=O)Nc1ccccc1C(F)(F)F)C(=O)C1CC(=O)N(Cc2ccccc2)C1 (configuration not stated)
 : 0.6% | -6 | 1.0 | -86* | 3 | -0.6
Cc1cccc(NC(=O)CNC(=O)C23CC4CC(CC(Cl)(C4)C2)C3)n1
 : -2.7% | 2 | -0.4 | 15 | -2 | -0.4
CSc1ccc(CN(C)Cc2nc3ccccc3c(=O)[nH]2)cc1
 : -1.5% | -2 | -3.4 | -2 | -17 | -0.6
CCn1cc(C(=O)N2CCN(Cc3ccc4c(c3)OCO4)CC2)c2cc(OC)c(OC)cc2c1=O
 : 1.5% | 29 | -1.3 | -6 | -7 | -0.2
Cc1oc(-c2cccs2)[n+]([O-])c1C
 : 1.3% | 9 | -1.6 | 9 | -8 | -0.6
O=C(c1cnc2ccc3ccccc3c2c1)c1cc(F)ccc1O
 : 1.0% | · | -11 | -11 | 6 | ·
COc1ccc(CN(C(=O)Nc2ccccc2)c2ccccn2)cc1OC
 : 1.1% | -16 | · | · | · | -0.3
COC(=O)c1cc(Oc2ccc(C(=O)OC)cc2N)cc(C(=O)OC)c1
 : -3.6% | -11 | 0.7 | -3 | -20 | 3.2
CC(=O)N1CCCc2cc(S(=O)(=O)N3CCCC(C(=O)Nc4cccc(C)c4)C3)ccc21 (configuration not stated)
 : 0.6% | 17 | -1.2 | -6 | -9 | -0.3
Cc1cc(C(=O)CSc2ncnc3ccccc23)c(C)n1C1CC1
 : ? | 22 | -1.3 | -4 | -7 | 0.6
COc1ccc(/C=N/NC(=O)CC#N)cc1Oc1nc(Cl)ncc1F
 : 3.7% | 13 | -2.3 | 3 | -12 | 1.4
CN(Cc1ccccc1)C(=O)c1ccccc1NC(=O)C1CC1
 : 1.3% | -13 | -1.7 | 1 | -7 | 1.3
CC(=O)Nc1ccc(NS(=O)(=O)c2ccc3c(c2)CCCN3C(C)=O)cc1
 : -0.9% | 5 | · | · | · | 0.0
CN(C(=O)COC(=O)c1ccc(Cl)cc1N)C1CCS(=O)(=O)C1 (configuration not stated)
 : 0.9% | -23 | 0.6 | 7 | 5 | -0.3
Cn1cc(Br)c(-c2cccc(NC(=O)CC(C)(C)CC(=O)O)c2)n1
 : 0.1% | 0 | -7.7 | 0 | -18 | -0.5
CCc1cccc2c1NC(=O)C21OCCO1
 : 1.1% | 12 | -3.3 | 5 | -4 | -0.1
CCn1nc(C)cc1C(=O)N1CCCC(C(=O)c2ccc3ccccc3c2)C1 (configuration not stated)
 : -0.6% | 8 | 0.9 | -3 | -7 | 1.1
CCOc1ccc2nc(N3CCCC(C(=O)Nc4cc(C)ccc4C)C3)sc2c1 (configuration not stated)
 : 1.3% | -3 | · | · | · | 1.5

Quoted at random: 5 records from the list
Every second line gives: PINK1 modulator | TRPML1 inh | D2 agonist | Six1-Eya2 inh | D2 PAM | TRPML1 agonist
Cc1oc(-c2cccs2)[n+]([O-])c1C
 : 1.3% | 9 | -1.6 | 9 | -8 | -0.6
COc1ccc(CN(C(=O)Nc2ccccc2)c2ccccn2)cc1OC
 : 1.1% | -16 | · | · | · | -0.3
CCn1cc(C(=O)N2CCN(Cc3ccc4c(c3)OCO4)CC2)c2cc(OC)c(OC)cc2c1=O
 : 1.5% | 29 | -1.3 | -6 | -7 | -0.2
CCOc1ccc2nc(N3CCCC(C(=O)Nc4cc(C)ccc4C)C3)sc2c1 (configuration not stated)
 : 1.3% | -3 | · | · | · | 1.5
CC(=O)Nc1ccc(NS(=O)(=O)c2ccc3c(c2)CCCN3C(C)=O)cc1
 : -0.9% | 5 | · | · | · | 0.0

More structures
Every second line gives: PINK1 modulator | TRPML1 inh | D2 agonist | Six1-Eya2 inh | D2 PAM | TRPML1 agonist
Cn1c(=O)n(C)c2cc([N+](=O)[O-])c(N3CCN(C(=O)c4ccc(F)cc4)CC3)cc21
 : -1.4% | 16 | 1.9 | 0 | -18 | -0.1
O=C(CSc1nc(-c2ccccc2)nc2c1Cc1ccccc1O2)Nc1ccc(C(=O)O)cc1
 : 1.7% | -14 | 1.9 | -81* | 8 | 0.9
O=C(CSc1nnc(-c2ccco2)n1-c1ccccc1)NCc1ccco1
 : 0.6% | -5 | -7.0 | -4 | -8 | -0.1
Cc1[nH]c2ccccc2c1SCc1ccccc1
 : 8.2% | 39 | -2.3 | -1 | -3 | 1.2
Cc1nc(CN2CCN(C(=O)c3ccc(Br)cc3)CC2)cs1
 : 0.4% | -6 | 1.1 | 14 | -36 | 0.3
Cc1cccc(OCC(=O)NCC(=O)N/N=C/c2ccc(O)cc2O)c1
 : -0.4% | 59 | -5.3 | -85* | -17 | -0.6
CCCCC1(C)NC(=O)c2c(C)sc(C(=O)OCC)c2N1 (configuration not stated)
 : 15% | -6 | -0.1 | -3 | -22 | 1.3
Cc1ccc2[nH]c(=O)c(-c3nc4cc(C)ccn4c3NCc3ccco3)cc2c1
 : 5.8% | -14 | -0.3 | -1 | -7 | 1.0
COc1ccc(OCCn2nnc(-c3ccc(Cl)cc3)n2)cc1
 : 5.7% | -18 | -0.1 | 6 | -11 | 2.2
CCCCn1c(SCC(N)=O)nnc1-c1ccco1
 : 3.1%[38.3 µM] | 3 | -0.8 | -1 | -16 | -0.5
Cc1ccc(NC(=O)C(C)N2CCOCC2)c(C(=O)c2ccccc2)c1 (configuration not stated)
 : -1.2% | 7 | -2.1 | -4 | -3 | -0.9
CC(C)C(=O)NC(NC1CCS(=O)(=O)C1)C(Cl)(Cl)Cl (configuration not stated)
 : 2.1% | -9 | 3.6 | 10 | 14 | -0.4
CC(O)Cn1ccccc1=N (configuration not stated)
 : -0.9% | 54 | -3.6 | 11 | 1 | 0.3
Cn1c2c(c(=O)n(C)c1=O)C(c1cccc(F)c1)C(C#N)=C(N)O2 (configuration not stated)
 : 0.7% | 11 | -1.6 | 0 | -1 | 0.3
CC(=O)C1=C(C)NC(C)=C(C(C)=O)C1c1ccc(-c2ccccc2Cl)o1
 : 1.1% | 30 | 3.0 | 5 | -6 | -0.2
N#C/C(=C/c1cccnc1)c1ccccc1
 : 0.6% | -4 | 2.4 | 4 | -3 | 0.7
O=C(Oc1cc(Cl)ccc1Cl)c1ccc(N2CCOCC2)c([N+](=O)[O-])c1
 : 7.1% | 12 | -0.6 | ? | 12 | 1.3
CC(C)(C)NC(=O)NC(=O)COC(=O)Cc1c(F)cccc1Cl
 : 0.4% | 17 | -14 | -2 | -4 | -0.1
Cc1ccc(S(=O)(=O)c2nc(S(C)(=O)=O)sc2N2CCCCC2C)cc1 (configuration not stated)
 : -1.7% | 6 | -3.4 | 3 | -8 | 1.1
CC(=O)NCCC(=O)NCc1ccc(F)cc1
 : -0.7% | -13 | -3.1 | 4 | -5 | 0.8
Cc1ccc(N(C(C)C(=O)N2CCCC2)S(C)(=O)=O)cc1 (configuration not stated)
 : 1.4% | 10 | -0.1 | -1 | 3 | 0.2
O=C1CC(N2CCN(c3ccc(F)cc3)CC2)C(=O)N1Cc1ccc(N2CCCC2=O)cc1 (configuration not stated)
 : 0.4% | 9 | -0.6 | -1 | 14 | -1.0
Cc1nc2nc(Cc3ccccc3)[nH]n2c(=O)c1Cl
 : -1.5% | -4 | 3.3 | 3 | 0 | 0.0
Cc1ccc(Cc2nc3ccccc3nc2SCC(=O)Nc2cccc(C(F)(F)F)c2)cc1
 : 3.8% | 14 | · | · | · | 0.1

Source: PubChem
